rRNA inh HTS – reduced GFP signal of wild-type E. coli, primary screen, bacterial rRNA inhibitor project, GFP/RFP fluorescence, OD600, single point. actives 1.6% (n = 350,000). E. coli WT GFP vs humanized-ribosome RFP mutants, 24 h; hits give low values; DMSO median 0, no signal -100. GFP signal change (wild-type ribosome), % (test concentration not listed);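 active = significant combined selectivity score with lowered wild-type GFP, culture density cut under 30%, mutant RFP and density less affected; inactive = any of these conditions unmet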; note: one replicate is shown; some compounds called inactive have numbers as strong as hits
FGF22 binding – binders of human FGF22 protein, primary screen, FGF22 synaptogenesis inhibitor project, biophysical, thermal shift, single point. recombinant FGF22 thermal shift, SYPRO orange fluorescence; percent of sucrose octasulfate shift, DMSO zero. Fibroblast growth factor 22 (Homo sapiens), Q9HCT0. calls only at 9.99 µM. actives 1.5% (n = 340,000);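 active = melting point raised past a set limit in the mean and every replicate; three in four hits are not shown here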
Target sequence (Q9HCT0 whole entry, looked up): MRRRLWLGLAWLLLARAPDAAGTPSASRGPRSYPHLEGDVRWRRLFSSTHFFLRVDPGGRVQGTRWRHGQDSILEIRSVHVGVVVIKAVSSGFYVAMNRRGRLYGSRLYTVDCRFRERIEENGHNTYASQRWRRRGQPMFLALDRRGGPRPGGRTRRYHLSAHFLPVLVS
rRNA inh HTS OD600 – also measured in rRNA inh HTS; calls as there; OD600 change, %; measured here: OD600 growth;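 optical density of the mix in the first replicate; 0 = DMSO median and -100 = no signal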
rRNA inh HTS RFP – recorded beside rRNA inh HTS, whose call it bears; RFP signal change, %; measured here: RFP humanized mutant strains;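 first replicate; 0 = DMSO median and -100 = no signal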
Numbers without * were called inactive; i = inactive. This is a subset; count on the stated rates, not on these rows.

Values run as follows: rRNA inh HTS OD600, FGF22 binding, rRNA inh HTS, rRNA inh HTS RFP
C/C=C/c1ccc2c(c1)O[C@H](CN(C)C(=O)c1ccccc1F)[C@H](C)CN([C@@H](C)CO)S2(=O)=O
 : -11, i, -6, -1.5
COc1ccc(NC(=O)Nc2ccc3c(c2)CC(=O)N([C@@H](C)CO)C[C@H](C)[C@@H](CN(C)S(=O)(=O)c2cn(C)cn2)O3)cc1
 : -3, i, 1, 3.3
O=C(C[C@@H]1C=C[C@@H](NS(=O)(=O)c2ccc(F)cc2)[C@@H](CO)O1)N1CCN(c2ccccc2)CC1
 : -6, i, 0, -4.5
COc1ccc(C#Cc2ccc3c(c2)[C@@H]2[C@@H](CCN2C(C)=O)[C@@H](CO)N3)cc1
 : 2, i, -2, -0.6
C[C@H](CO)N1C[C@H](C)[C@@H](CN(C)S(=O)(=O)c2ccc(Cl)cc2)OCCCC[C@H](C)Oc2ccc(NS(=O)(=O)c3cccs3)cc2C1=O
 : -1, i, -3, 3.8
COc1ccc(S(=O)(=O)Nc2ccc3c(c2)CC(=O)N([C@@H](C)CO)C[C@H](C)[C@H](CN(C)C(=O)Nc2ccc(C(F)(F)F)cc2)O3)cc1
 : -4, i, 2, -1.7
Cc1ccc(NC(=O)OC[C@@H]2CSCCS(=O)(=O)N2)cc1
 : 8, i, 4, 3.7
O=C(O)C[C@@H]1C=C[C@@H](NC(=O)Nc2ccccc2)[C@H](CO)O1
 : 4, i, 1, 2.0
CO[C@H]1CN(C)C(=O)c2cccc(C#N)c2OC[C@H]2O[C@@H](CC[C@@H]2OC)CCN(C)C(=O)[C@H]1C
 : 3, i, 2, 0.5
CC(C)NC(=O)Nc1cccc2c1O[C@H](CN(C)Cc1ccc(-c3ccccc3)cc1)[C@H](C)CN([C@@H](C)CO)C2=O
 : -4, i, -1, 3.0
Cc1cccc(NC(=O)Nc2ccc3c(c2)C(=O)N(C)[C@@H]2CC[C@H](CC(=O)NCc4ccccc4Cl)O[C@@H]2CO3)c1
 : 3, i, -3, -1.9
CCCN(C)C[C@@H]1Oc2cc(C#C[C@H](C)O)ccc2S(=O)(=O)N([C@H](C)CO)C[C@@H]1C
 : -2, i, -1, -3.7
COc1ccc(CN(C)C[C@@H]2Oc3ccc(NS(=O)(=O)c4c(C)noc4C)cc3CC(=O)N([C@H](C)CO)C[C@@H]2C)cc1
 : -6, i, -1, 0.3
Cc1cc(C(=O)Nc2cccc3c2O[C@H](CN(C)Cc2ccc(-c4ccccc4)cc2)[C@@H](C)CN([C@@H](C)CO)C3=O)n(C)n1
 : 10, i, 1, -0.5
COc1cccc(S(=O)(=O)N2C[C@@H](O)COC[C@@H]3O[C@H](CC(=O)N4CCN(c5ccccc5)CC4)CC[C@H]32)c1
 : -5, i, -4, 1.3
COc1ccc(S(=O)(=O)N(C)C[C@@H]2Oc3cc(C#CC4CC4)ccc3S(=O)(=O)N([C@H](C)CO)C[C@@H]2C)cc1
 : -6, i, -5, 0.3
C[C@H](CO)N1C[C@H](C)[C@@H](CN(C)Cc2ccc(F)cc2)OCc2ccccc2-c2ccccc2C1=O
 : 6, i, -1, 0.0
C[C@H]1CN([C@@H](C)CO)C(=O)c2ccccc2-c2ccccc2CO[C@H]1CN(C)S(=O)(=O)c1ccccc1
 : -5, i, -4, -0.9
CC(=O)Nc1ccc2c(c1)C(=O)N(C)[C@@H]1CC[C@H](CC(=O)N3CCc4ccccc4C3)O[C@@H]1CO2
 : -3, i, 1, 0.4
N#C[C@H]1[C@@H](c2ccccc2)[C@H](CO)N1C(=O)c1ccccc1F
 : 3, i, 2, -4.8
Cc1ccc(-c2ccccc2[C@@H]2[C@H](C#N)N(C(=O)c3cccc(F)c3)[C@H]2CO)cc1
 : -4, i, -7, 0.1
O=C(C[C@@H]1C[C@@H]2c3cc(NC(=O)c4ccc5c(c4)OCO5)ccc3O[C@@H]2[C@@H](CO)O1)NCc1ccccn1
 : 6, i, 1, 1.3
CN(C)C(=O)c1ccc(-c2ccc3c(c2)[C@@H]2[C@@H](CCN2C(=O)c2cnccn2)[C@@H](CO)N3)cc1
 : 14, i, -3, -7.1
C[C@@H]1CCCCO[C@@H](CN(C)C(=O)Nc2cccc3ccccc23)[C@H](C)CN([C@H](C)CO)C(=O)c2cc(NC(=O)Cc3ccccc3)ccc2O1
 : 1, i, 3, -0.5
CC(=O)Nc1ccc2c(c1)C(=O)N(C)[C@H]1CC[C@@H](CC(=O)NCc3ccccc3)O[C@@H]1CO2
 : 3, i, 4, -1.0
CCCC(=O)Nc1ccc2c(c1)OC[C@H](C)N(C(=O)c1ccncc1)C[C@@H](C)[C@@H](OC)CN(C)C2=O
 : -7, i, -1, 1.9
C[C@H](CO)N1C[C@H](C)[C@H](CN(C)S(=O)(=O)c2ccc(F)cc2)Oc2ccc(NS(C)(=O)=O)cc2C1=O
 : -1, i, -1, -3.7
C[C@@H]1CN([C@H](C)CO)C(=O)c2cccc(NS(=O)(=O)c3ccc(Cl)cc3)c2O[C@H]1CN(C)CC1CCCCC1
 : 0, i, -2, 0.4
COc1ccccc1S(=O)(=O)N(C)C[C@H]1Oc2cc(C#CCC3CCCC3)ccc2S(=O)(=O)N([C@H](C)CO)C[C@@H]1C
 : -1, i, 3, 0.6
Cc1noc(C)c1NC(=O)N(C)C[C@H]1Oc2ccc(NS(C)(=O)=O)cc2CC(=O)N([C@@H](C)CO)C[C@@H]1C
 : 2, i, 0, -1.3

A different layout for 4 compounds above:
compound | rRNA inh HTS OD600 | FGF22 binding | rRNA inh HTS | rRNA inh HTS RFP
COc1ccc(S(=O)(=O)Nc2ccc3c(c2)CC(=O)N([C@@H](C)CO)C[C@H](C)[C@H](CN(C)C(=O)Nc2ccc(C(F)(F)F)cc2)O3)cc1 | -4 | i | 2 | -1.7
Cc1ccc(NC(=O)OC[C@@H]2CSCCS(=O)(=O)N2)cc1 | 8 | i | 4 | 3.7
O=C(O)C[C@@H]1C=C[C@@H](NC(=O)Nc2ccccc2)[C@H](CO)O1 | 4 | i | 1 | 2.0
CO[C@H]1CN(C)C(=O)c2cccc(C#N)c2OC[C@H]2O[C@@H](CC[C@@H]2OC)CCN(C)C(=O)[C@H]1C | 3 | i | 2 | 0.5

Continued:
Values run as follows: rRNA inh HTS OD600, FGF22 binding, rRNA inh HTS, rRNA inh HTS RFP
C[C@@H]1CCCCO[C@H](CN(C)C(=O)Nc2ccccc2)[C@H](C)CN([C@@H](C)CO)C(=O)c2cc(NC(=O)Nc3ccc(F)cc3)ccc2O1
 : 3, i, -1, -1.0
O=C(Cc1ccccc1)N1C[C@@H]2[C@H](c3ccccc31)[C@@H](CO)N2C(=O)c1ccc(F)cc1
 : 3, i, -1, -1.0
CN1C(=O)c2cc(NS(=O)(=O)c3ccc(F)cc3)ccc2OC[C@@H]2O[C@H](CC(=O)NCC(F)(F)F)CC[C@H]21
 : 0, i, -1, 0.5
C[C@H]1CN([C@@H](C)CO)C(=O)c2cc(NC(=O)Nc3ccc(C(F)(F)F)cc3)ccc2O[C@@H]1CN(C)Cc1ccncc1
 : -58, i, -10, 21
CC=Cc1ccc2n(c1=O)C[C@@H]1[C@@H](CO)[C@H](C(=O)NCC3CC3)[C@H]2N1S(=O)(=O)c1cn(C)cn1 (mixture of isomers)
 : 4, i, 2, -1.4
CCC(=O)N1[C@@H]2c3ccc(/C=C/c4ccccc4)c(=O)n3C[C@@H]2[C@@H](CO)[C@@H]1C(=O)Nc1nccs1
 : -7, i, -8, 4.7
COc1ccc(S(=O)(=O)Nc2ccc3c(c2)C(=O)N([C@H](C)CO)C[C@@H](C)[C@@H](CN(C)CC2CCCCC2)OCCCC[C@@H](C)O3)cc1
 : -40, i, -23, -0.2
COc1ccc(S(=O)(=O)N(C)C[C@@H]2Oc3ncc(-c4ccncc4)cc3C(=O)N([C@@H](C)CO)C[C@@H]2C)cc1
 : 4, i, 0, -1.2
O=C(Nc1ccccc1)N1C[C@@H]2[C@H](c3ccccc31)[C@@H](CO)N2C(=O)c1ccccc1F
 : 5, i, 3, 0.6
CC(C)NC(=O)N(C)C[C@H]1Oc2ncc(-c3cccc(C#N)c3)cc2C(=O)N([C@@H](C)CO)C[C@H]1C
 : 3, i, 5, -2.0
CO[C@@H]1CN(C)C(=O)c2cc(NC(=O)c3ccno3)ccc2OC[C@@H](C)N(S(C)(=O)=O)C[C@H]1C
 : 0, i, 0, -1.2
O=C(Cc1cccnc1)N1[C@@H]2CNc3ccccc3[C@@H]2[C@@H]1CO
 : 0, i, 3, -2.1
CC(C)OC(=O)N(C)C[C@H]1OCc2cnnn2CCCC(=O)N([C@@H](C)CO)C[C@@H]1C
 : 0, i, 2, -2.2
CCC(=O)Nc1ccc2c(c1)OC[C@H](C)N(C(=O)C1CC1)C[C@H](C)[C@H](OC)CN(C)C2=O
 : 1, i, -1, -1.3
C[C@@H]1CCCCO[C@H](CN(C)C(=O)NC2CCCCC2)[C@@H](C)CN([C@H](C)CO)C(=O)c2cc(NC(=O)Nc3ccc(F)cc3)ccc2O1
 : -1, i, 2, -0.6
O=S(=O)(N[C@@H]1CC[C@@H](CCn2cc(-c3ccccn3)nn2)O[C@H]1CO)c1cccc(Cl)c1
 : -3, i, -4, 0.1
CC(C)NC(=O)N(C)C[C@@H]1Oc2ncc(C3=CCCCC3)cc2C(=O)N([C@@H](C)CO)C[C@H]1C
 : 7, i, 0, -2.4
CCC(=O)N1[C@H](CN(C)C(C)=O)[C@H](c2ccc(-c3cccnc3)cc2)[C@@H]1CO
 : 2, i, 4, 0.3
CCCC(=O)Nc1ccc2c(c1)C(=O)N(C)[C@@H]1CC[C@H](CC(=O)OC)O[C@@H]1CO2
 : 0, i, 0, -1.4
CO[C@H]1CN(C)C(=O)c2ccc(NC(=O)C3CC3)cc2OC[C@@H](C)N(CC2CCCC2)C[C@@H]1C
 : -10, i, -3, 4.6
CCCc1nc2c(C)cc(Br)cn2c1Cc1ccccc1OC
 : -48, i, -15, 4.2
C/C=C/c1ccc([C@@H]2[C@@H](CNC(=O)CC)N(C(=O)CC)[C@H]2CO)cc1
 : -3, i, 0, 1.0
C[C@@H]1CN([C@H](C)CO)C(=O)c2cc(NC(=O)Cc3ccccc3)ccc2O[C@@H]1CN(C)Cc1ccncc1
 : 9, i, 2, -1.6
C[C@H]1CN([C@@H](C)CO)C(=O)c2cccc(NC(=O)Nc3ccc4c(c3)OCO4)c2O[C@@H]1CN(C)CC1CC1
 : -4, i, -7, 2.2
C[C@@H]1CN([C@@H](C)CO)C(=O)c2cc(NS(=O)(=O)c3cccs3)ccc2O[C@@H](C)CCCCO[C@H]1CN(C)C(=O)CCCN(C)C
 : 6, i, -2, -3.7
COc1ccc(CN2C[C@H](O)COC[C@H]3O[C@@H](CC(=O)N4CCc5ccccc5C4)CC[C@@H]32)cc1
 : -13, i, -2, 12
C[C@@H]1CN([C@@H](C)CO)C(=O)c2cc(NC(=O)C3CC3)ccc2O[C@@H]1CN(C)Cc1ccc(Oc2ccccc2)cc1
 : -50, i, -1, 25
Cc1noc(C)c1S(=O)(=O)N(C)C[C@@H]1OCCCC[C@@H](C)Oc2ccc(NC(=O)Nc3ccc(F)cc3)cc2C(=O)N([C@@H](C)CO)C[C@H]1C
 : 1, i, 2, 5.3
C[C@@H]1CCCCO[C@H](CN(C)C(=O)c2ccncc2)[C@H](C)CN([C@@H](C)CO)C(=O)c2cc(NS(=O)(=O)c3ccc(F)cc3)ccc2O1
 : -3, i, -4, 1.4
COc1ccc(S(=O)(=O)Nc2cccc3c2O[C@H](CN(C)C(=O)NC2CCCCC2)[C@H](C)CN([C@@H](C)CO)C3=O)cc1
 : -3, i, 1, 1.4
COc1ccc(CN(C)C[C@H]2OCCCC[C@H](C)Oc3ccc(NS(C)(=O)=O)cc3C(=O)N([C@@H](C)CO)C[C@@H]2C)cc1
 : 1, i, 3, -0.3
CCCN1[C@@H]2c3ccc(-c4ccccc4)c(=O)n3C[C@H]1[C@H](CO)[C@H]2C(=O)NCC
 : 2, i, 2, -0.4
COC(=O)C1=C(C)N(Cc2ccc(C(F)(F)F)cc2)C(=NCc2ccccc2C(F)(F)F)NC1c1ccc(Cl)cc1 (stereo not drawn)
 : 22, i, 27, 15
N#C[C@H]1[C@@H](c2ccccc2C2=CCCC2)[C@H](CO)N1C(=O)C1CC1
 : 1, i, 0, -0.4
O=C(C[C@H]1C[C@H]2c3cc(NC(=O)CC4CC4)ccc3O[C@H]2[C@H](CO)O1)NCc1cccc(F)c1
 : 0, i, 4, 1.7
C[C@H]1CN([C@@H](C)CO)S(=O)(=O)c2ccc(/C=C/c3ccccc3)cc2O[C@H]1CN(C)C(=O)Nc1cccc(F)c1
 : 4, i, 3, -1.3
C[C@@H]1CN([C@@H](C)CO)C(=O)c2cc(NC(=O)Nc3cccc4ccccc34)ccc2O[C@@H](C)CCCCO[C@@H]1CN(C)C(=O)c1ccccc1
 : 0, i, 2, 6.4
C[C@H](CO)N1C[C@H](C)[C@H](CN(C)Cc2ccccn2)Oc2cc(-c3ccc(C#N)cc3)ccc2S1(=O)=O
 : -4, i, -3, 2.7
CO[C@@H]1CN(C)C(=O)c2cc(NC(=O)Nc3ccccc3Cl)ccc2OC[C@H](C)NC[C@H]1C
 : 0, i, 0, -0.1

2 records drawn at random from those above:
Values run as follows: rRNA inh HTS OD600, FGF22 binding, rRNA inh HTS, rRNA inh HTS RFP
CO[C@@H]1CN(C)C(=O)c2cc(NC(=O)Nc3ccccc3Cl)ccc2OC[C@H](C)NC[C@H]1C
 : 0, i, 0, -0.1
COC(=O)C1=C(C)N(Cc2ccc(C(F)(F)F)cc2)C(=NCc2ccccc2C(F)(F)F)NC1c1ccc(Cl)cc1 (stereo not drawn)
 : 22, i, 27, 15
